Yeast UUG start = modulators of yeast start codon fidelity, primary screen, whole organism, S. cerevisiae, single point, plate reader | S. cerevisiae UUG-firefly luciferase reporter, luminescence/redox ratio | activity score, % at 18.7 µM | 350,000 tested, 0.13% active | AID 602363, 2012;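 active = replicate mean at a twofold rise or more, about +100% in these data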;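 note: firefly luciferase made from a UUG start codon reports start codon fidelity; reporter light over untreated wells divided by growth signal over untreated wells; some hits fall short of that in this replicate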
Env fusion inh = inhibitors of HIV-1 Env-driven cell-cell fusion, primary screen, HeLa-JRFL effector, CEM21 target cells, luciferase. inhibition, % at 12.3 µM. 360,000 tested, 1.1% active. AID 651610, 2012;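 active = mean replicate inhibition score of at least 50 and every replicate individually at or above 50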;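 note: 0% = plate neutral controls and 100% = maraviroc near 300 nM; one replicate is shown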
Numbers without * were called inactive; & = joins results of further samples; [ ] = remark or other dose. Not all compounds are listed; rates above refer to the full screens.

| Molecule | Yeast UUG start | Env fusion inh |
| --- | --- | --- |
| CC(C)NC(=O)Nc1ccc2c(c1)C(=O)N([C@H](C)CO)C[C@@H](C)[C@H](CN(C)S(=O)(=O)c1cn(C)cn1)O2 | -1.9 | 19.2[16.7 µM] |
| COCC#Cc1ccc2c(c1)O[C@@H](CN(C)CC1CCOCC1)[C@@H](C)CN([C@@H](C)CO)S2(=O)=O | 2.5 | 2.4[16.7 µM] |
| CCCC#Cc1cnc2c(c1)C(=O)N([C@@H](C)CO)C[C@@H](C)[C@@H](CN(C)C(=O)NC1CCCC1)O2 | -4.4 | 12.1[16.7 µM] |
| Cc1ccc(S(=O)(=O)N(C)C[C@H]2OCCCC[C@@H](C)Oc3ccc(NS(=O)(=O)c4cn(C)cn4)cc3C(=O)N([C@@H](C)CO)C[C@@H]2C)cc1 | -5.5 | -11.0[16.7 µM] |
| CC(C)C#Cc1ccc2c(c1)O[C@@H](CN(C)C(=O)c1ccccn1)[C@@H](C)CN([C@@H](C)CO)S2(=O)=O | 2.1 | 12.2[16.7 µM] |
| Cc1ccc(S(=O)(=O)Nc2ccc3c(c2)C(=O)N([C@@H](C)CO)C[C@@H](C)[C@@H](CN(C)C(=O)CCC(F)(F)F)OCCCC[C@H](C)O3)cc1 | -4.3 | -9.6[16.7 µM] |
| O=C(O)C[C@@H]1C[C@H]2c3cc(NC(=O)c4ccc5c(c4)OCO5)ccc3O[C@H]2[C@H](CO)O1 | -14.6 | -22.3[16.7 µM] |
| COc1ccc(NC(=O)N(C)C[C@@H]2Oc3c(NC(=O)c4nc5ccccc5s4)cccc3C(=O)N([C@H](C)CO)C[C@H]2C)cc1 | -2.3 | 13.3[16.7 µM] |
| C[C@H]1CN([C@@H](C)CO)S(=O)(=O)c2ccc(C#CC3(O)CCCC3)cc2O[C@@H]1CN(C)CC1CC1 | 3.5 | -11.2[16.7 µM] |
| C/C=C/c1ccc2c(c1)O[C@H](CN(C)CC1CCOCC1)[C@@H](C)CN([C@@H](C)CO)S2(=O)=O | 1.7 | -18.1[16.7 µM] |
| C[C@@H]1CN([C@H](C)CO)C(=O)c2cccc(NC(=O)Nc3ccc4c(c3)OCO4)c2O[C@H]1CN(C)C(=O)Nc1ccc2c(c1)OCO2 | 3.8 | -22.0[16.7 µM] |
| O=C(C[C@@H]1C[C@H]2c3cc(NC(=O)C4CCOCC4)ccc3O[C@H]2[C@H](CO)O1)NCC1CC1 | 8.0 | 9.5[16.7 µM] |

(list continues)
| Molecule | Yeast UUG start | Env fusion inh |
| --- | --- | --- |
| COc1cccc(C#Cc2ccc([C@@H]3[C@@H](C#N)N(C(=O)C4CCCCC4)[C@H]3CO)cc2)c1 | -8.0 | 24.8[16.7 µM] |
| CCCNC(=O)N[C@H]1C=C[C@@H](CC(=O)N2CCN(C)CC2)O[C@H]1CO | -6.9 | 11.3[16.7 µM] |
| C[C@H](CO)N1C[C@H](C)[C@H](CN(C)Cc2ccc(Oc3ccccc3)cc2)Oc2ccc(NC(=O)C3CCCCC3)cc2CC1=O | -3.5 | -161.7[16.7 µM] |
| COc1ccc(NC(=O)Nc2ccc3c(c2)C(=O)N([C@@H](C)CO)C[C@H](C)[C@@H](CN(C)S(=O)(=O)c2ccc(F)cc2)OCCCC[C@H](C)O3)cc1 | -8.0 | 19.3[16.7 µM] |
| Cc1ccc(S(=O)(=O)Nc2ccc3c(c2)CC(=O)N([C@@H](C)CO)C[C@@H](C)[C@H](CN(C)C(=O)Nc2ccccc2)O3)cc1 | 11.3 | -17.2[16.7 µM] |
| CN(C)CCCNC(=O)C[C@H]1CC[C@H](NS(=O)(=O)c2ccccc2)[C@H](CO)O1 | -1.1 | -17.5[16.7 µM] |
| O=C(C[C@@H]1CC[C@H](NC(=O)C2CC2)[C@H](CO)O1)NCCCN1CCOCC1 | -6.0 | -4.2[16.7 µM] |
| C[C@@H]1CN([C@@H](C)CO)C(=O)c2cc(NS(=O)(=O)c3ccccc3)ccc2O[C@@H](C)CCCCO[C@H]1CN(C)C(=O)CCCN(C)C | 10.2 | -10.3[16.7 µM] |
| C[C@H](O)C#Cc1cnc2c(c1)C(=O)N([C@H](C)CO)C[C@@H](C)[C@H](CN(C)C(=O)CN1CCOCC1)O2 | 3.7 | 1.8[16.7 µM] |
| CCCN(C)C[C@H]1Oc2cc(C#CC3CCCCC3)ccc2S(=O)(=O)N([C@H](C)CO)C[C@H]1C | 3.8 | 9.4[16.7 µM] |
| C[C@H]1CCCCO[C@@H](CN(C)S(=O)(=O)c2cn(C)cn2)[C@@H](C)CN([C@@H](C)CO)C(=O)c2cc(NC(=O)Nc3ccccc3)ccc2O1 | 7.4 | -10.0[16.7 µM] |
| COc1ccccc1C#Cc1ccc2c(c1)O[C@@H](CN(C)Cc1ccncc1)[C@H](C)CN([C@H](C)CO)S2(=O)=O | -16.7 | 52.3*[16.7 µM] |

The listing continues.
| Molecule | Yeast UUG start | Env fusion inh |
| --- | --- | --- |
| C[C@@H]1CN([C@H](C)CO)C(=O)c2cc(C#CC3(O)CCCC3)cnc2O[C@H]1CN(C)S(=O)(=O)c1ccc(F)cc1 | 1.6 | 10.1[16.7 µM] |
| C[C@@H]1CCCCO[C@H](CN(C)Cc2ccc(C(F)(F)F)cc2)[C@H](C)CN([C@@H](C)CO)C(=O)c2cc(NC(=O)Nc3cccc4ccccc34)ccc2O1 | -10.6 | 21.6[16.7 µM] |
| C[C@H]1CN([C@@H](C)CO)C(=O)Cc2cc(NS(=O)(=O)c3cn(C)cn3)ccc2O[C@H]1CN(C)Cc1ccc(C(F)(F)F)cc1 | 22.6 | -6.8[16.7 µM] |
| CN1C(=O)c2cc(NC(=O)c3cnccn3)ccc2OC[C@@H]2O[C@@H](CC(=O)O)CC[C@H]21 | -12.7 | -15.6[16.7 µM] |
| C[C@@H]1CCCCO[C@H](CN(C)C(=O)NC2CCCCC2)[C@@H](C)CN([C@@H](C)CO)C(=O)c2cc(NC(=O)NC3CCCCC3)ccc2O1 | 11.5 | 22.2[16.7 µM] |
| COc1ccc(NC(=O)Nc2ccc3c(c2)C(=O)N([C@@H](C)CO)C[C@@H](C)[C@H](CN(C)S(C)(=O)=O)OCCCC[C@@H](C)O3)cc1 | 20.0 | 5.2[16.7 µM] |
| COc1ccc(NC(=O)Nc2ccc3c(c2)C(=O)N([C@@H](C)CO)C[C@@H](C)[C@H](CN(C)C(=O)C2CCCCC2)OCCCC[C@H](C)O3)cc1 | -5.1 | 6.0[16.7 µM] |
| CCCN(C)C[C@@H]1Oc2cc(C#CC3CCCCC3)ccc2S(=O)(=O)N([C@H](C)CO)C[C@H]1C | 9.0 | 20.2[16.7 µM] |
| CC(C)CC#Cc1ccc2c(c1)O[C@@H](CN(C)C(=O)c1ccccn1)[C@H](C)CN([C@H](C)CO)S2(=O)=O | 10.3 | -121.7[16.7 µM] |
| C[C@H](CO)N1C[C@H](C)[C@@H](CN(C)C(=O)C2CCOCC2)Oc2ncc(-c3cccnc3)cc2C1=O | 19.7 | -9.0[16.7 µM] |
| Cc1ccc(S(=O)(=O)N(C)C[C@H]2Oc3ccc(NC(=O)Cn4cnnn4)cc3CC(=O)N([C@H](C)CO)C[C@@H]2C)cc1 | 10.0 | 1.4[16.7 µM] |
| COc1cccc(S(=O)(=O)N(C)C[C@@H]2Oc3ncc(-c4cccc(C(=O)N(C)C)c4)cc3C(=O)N([C@@H](C)CO)C[C@H]2C)c1 | 7.5 | 9.3[16.7 µM] |

Further entries follow:
| Molecule | Yeast UUG start | Env fusion inh |
| --- | --- | --- |
| CN1C(=O)c2cc(NC(=O)c3cscn3)ccc2OC[C@H]2O[C@H](CC(=O)NCC3CC3)CC[C@@H]21 | 8.0 | -7.5[16.7 µM] |
| Cc1ccc(S(=O)(=O)N2C[C@@H](O)COC[C@@H]3O[C@H](CC(=O)NCc4ccc5c(c4)OCO5)CC[C@H]32)cc1 | 24.8 | 2.6[16.7 µM] |
| CCCC(=O)Nc1ccc2c(c1)C(=O)N(C)C[C@@H](OC)[C@H](C)CN(C(C)=O)[C@H](C)CO2 | 4.3 | 15.8[16.7 µM] |
| C[C@H](CO)N1C[C@H](C)[C@H](CN(C)C(=O)c2ccccc2F)Oc2ncc(C#Cc3ccccc3)cc2C1=O | 55.8 | 11.6[16.7 µM] |
| C[C@H](CO)N1C[C@H](C)[C@@H](CN(C)S(=O)(=O)c2ccc(Cl)cc2)OCCCC[C@H](C)Oc2ccc(NC(=O)Nc3ccc(C(F)(F)F)cc3)cc2C1=O | -13.8 | 9.2[16.7 µM] |
| O=C(C[C@H]1CC[C@H](NC(=O)Nc2cc(F)ccc2F)[C@H](CO)O1)NCCCN1CCOCC1 | -7.6 | 2.2[16.7 µM] |
| COc1ccccc1-c1ccc2c(c1)O[C@@H](CN(C)C(=O)c1ccccc1)[C@@H](C)CN([C@H](C)CO)S2(=O)=O | 7.6 | -21.6[16.7 µM] |
| COc1ccc(S(=O)(=O)N(C)C[C@@H]2OCCCC[C@H](C)Oc3ccc(NS(=O)(=O)c4c(C)noc4C)cc3C(=O)N([C@H](C)CO)C[C@@H]2C)cc1 | 5.3 | -26.5[16.7 µM] |
| C[C@H](CO)N1C[C@H](C)[C@@H](CN(C)C(=O)C2CCOCC2)Oc2ncc(-c3ccccc3F)cc2C1=O | 4.9 | -8.1[16.7 µM] |
| C[C@@H]1CN([C@H](C)CO)C(=O)c2cccc(NC(=O)C3CC3)c2O[C@H]1CN(C)Cc1ccc(C(=O)O)cc1 | 21.7 | -13.4[16.7 µM] |
| COc1cccc(-c2cnc3c(c2)C(=O)N([C@H](C)CO)C[C@H](C)[C@H](CN(C)Cc2ccc(F)cc2)O3)c1 | -8.2&-8.2 | 6.0&-2.8[16.7 µM] |
| C[C@H]1CN([C@@H](C)CO)C(=O)c2cc(C#Cc3cccc(F)c3)cnc2O[C@H]1CN(C)C(=O)C1CCCCC1 | -9.1 | 4.4[16.7 µM] |

Carrying on.
| Molecule | Yeast UUG start | Env fusion inh |
| --- | --- | --- |
| CCCN1C[C@H](C)[C@@H](OC)CN(C)C(=O)c2ccc(NC(=O)c3cccc(OC)c3)cc2OC[C@H]1C | 1.0 | 4.8[16.7 µM] |
| CCCC#Cc1cnc2c(c1)C(=O)N([C@H](C)CO)C[C@H](C)[C@H](CN(C)C(=O)NCCC)O2 | 4.5 | -6.2[16.7 µM] |
| C[C@H](CO)N1C[C@H](C)[C@@H](CN(C)Cc2ccc3c(c2)OCO3)Oc2c(NC(=O)c3ccncc3)cccc2C1=O | -20.5 | 2.2[16.7 µM] |
| COc1ccc(S(=O)(=O)Nc2ccc3c(c2)C(=O)N([C@@H](C)CO)C[C@H](C)[C@H](CN(C)Cc2ccc(Oc4ccccc4)cc2)O3)cc1 | 22.7 | 7.1[16.7 µM] |
| C[C@H](CO)N1C[C@H](C)[C@@H](CN(C)S(=O)(=O)c2ccc(F)cc2)OCCCC[C@H](C)Oc2ccc(NC(=O)C3CCCCC3)cc2C1=O | -2.0 | -2.0[16.7 µM] |
| C[C@@H]1CN([C@@H](C)CO)S(=O)(=O)c2ccc(C3=CCCCC3)cc2O[C@@H]1CN(C)C(=O)C1CC1 | 19.0 | 16.9[16.7 µM] |
| C[C@@H]1CN([C@@H](C)CO)C(=O)Cc2cc(NS(=O)(=O)c3ccc(Cl)cc3)ccc2O[C@@H]1CN(C)S(=O)(=O)c1ccc(Cl)cc1 | -2.4 | 18.3[16.7 µM] |
| COc1ccc(NC(=O)Nc2ccc3c(c2)C(=O)N([C@@H](C)CO)C[C@@H](C)[C@@H](CN(C)C(=O)CCCN(C)C)OCCCC[C@@H](C)O3)cc1 | 16.9 | 13.2[16.7 µM] |
| C[C@@H]1CN([C@H](C)CO)S(=O)(=O)c2ccc(C#Cc3ccncc3)cc2O[C@H]1CN(C)C(=O)c1ccncc1 | -2.7 | 21.2[16.7 µM] |
| C[C@@H]1CN([C@H](C)CO)C(=O)c2cc(C3=CCCCC3)cnc2O[C@H]1CN(C)C(=O)C1CCOCC1 | 3.7 | 0.7[16.7 µM] |
| CNC[C@@H]1Oc2cc(C#C[C@H](C)O)ccc2S(=O)(=O)N([C@H](C)CO)C[C@H]1C | 0.4 | -12.2[16.7 µM] |
| CCCNC(=O)N(C)C[C@H]1Oc2cc(-c3cccnc3)ccc2S(=O)(=O)N([C@H](C)CO)C[C@@H]1C | -9.9 | -2.2[16.7 µM] |

The list continues:
| Molecule | Yeast UUG start | Env fusion inh |
| --- | --- | --- |
| C[C@@H]1CN([C@H](C)CO)C(=O)c2cc(NS(=O)(=O)c3ccccc3)ccc2O[C@@H](C)CCCCO[C@@H]1CN(C)C(=O)NC1CCCCC1 | 9.0 | -11.8[16.7 µM] |
| CCCNC(=O)N1C[C@H](C)[C@@H](OC)CN(C)C(=O)c2cc(NS(=O)(=O)CC)ccc2OC[C@@H]1C | 9.9 | -1.8[16.7 µM] |
| C[C@@H]1CN([C@H](C)CO)C(=O)Cc2cc(NC(=O)Nc3ccc4c(c3)OCO4)ccc2O[C@@H]1CN(C)C(=O)NC1CCCCC1 | 8.6 | -4.1[16.7 µM] |
| C[C@H]1CCCCO[C@H](CN(C)C(=O)Cc2ccccc2)[C@@H](C)CN([C@@H](C)CO)C(=O)c2cc(NS(=O)(=O)c3ccc(F)cc3)ccc2O1 | 6.4 | 13.4[16.7 µM] |
| C[C@@H]1CN([C@H](C)CO)C(=O)Cc2cc(NC(=O)Nc3ccc(F)cc3)ccc2O[C@H]1CN(C)Cc1ccc(-c2ccccc2)cc1 | -13.1 | -2.1[16.7 µM] |
| CC(C)C#Cc1cnc2c(c1)C(=O)N([C@@H](C)CO)C[C@H](C)[C@H](CN(C)C(=O)Nc1ccccc1F)O2 | 5.7 | 3.8[16.7 µM] |

Profiles from above. Screens in order: Yeast UUG start | Env fusion inh
Record of `CCCN1C[C@H](C)[C@@H](OC)CN(C)C(=O)c2ccc(NC(=O)c3cccc(OC)c3)cc2OC[C@H]1C` : 1.0 | 4.8[16.7 µM]
Record of `C[C@@H]1CN([C@H](C)CO)S(=O)(=O)c2ccc(C#Cc3ccncc3)cc2O[C@H]1CN(C)C(=O)c1ccncc1` : -2.7 | 21.2[16.7 µM]
